VACV Venus inh – vaccinia inhibition (Venus reporter) | Potency, µM (series often up to 36.5 µM), for inactives: at the top dose activity change, negative = inhibition, usual class: inhibitors | Vaccinia virus Venus reporter expression, fluorescence | AID 720580 | 0.46% of 330,000 active; active means well fitted inhibition curve with a large enough effect; inconclusive means small, poorly fitted or top-dose-only effect; inactive means no such curve, though single readings can be large or run the other way; tested in A549 cells; note: nearly all actives have a fitted effect of over 30% in size; inactives centre near -10
Vaccinia mCherry – vaccinia inhibition (mCherry reporter); Vaccinia virus mCherry reporter infection, fluorescence; about a quarter of the inactives have no number; Potency, µM (series often up to 36.5 µM), for inactives: top-dose activity change, negative = inhibition, actives largely listed as inhibitors; 0.63% of 310,000 active; AID 720579; active = well fitted inhibition curve with a large enough effect; inconclusive = small, poorly fitted or top-dose-only effect; inactive = no such curve, though single readings can be large or run the other way; tested in A549 cells; note: nearly all actives have a fitted effect of over 35% in size; inactives centre near -10
An asterisk follows results filed as active; i = inactive; ? = inconclusive; . = no result given; & = joins results of further samples; [ ] = another dose, or the depositor's remark. % is set by controls: 0 for no effect and ±100 for the full control effect; potency is the fitted concentration of half-maximal effect.

SMILES	VACV Venus inh	Vaccinia mCherry
COc1ccc(C(=O)NNC(=O)Cc2nc3ccccc3n2C)cc1	-17%	-20%
CCOC(=O)/C(=C/c1c(C)n(C)c2ccc([N+](=O)[O-])cc12)C(C)=O	-6%	i
Cc1ccc(CCNC(=O)C2CCCN(c3nc4ccccc4o3)C2)cc1 (configuration not stated)	-16%	i
COc1ccc(-c2nnc3sc(CN4C(=O)c5ccccc5C4=O)nn23)cc1	-5%	-18%
COc1ccc2c(CNC3CCCCCC3)c(C(=O)O)n(Cc3cccc(F)c3)c2c1	-9%	-7%
NS(=O)(=O)c1cccc(NC(=O)Cc2ccc(Cl)c(Cl)c2)c1	-3%	i
COc1ccc(S(=O)(=O)NCC(c2ccco2)N2CCN(c3ccccc3F)CC2)cc1C (configuration not stated)	-15%	-11%
COc1ccc(CCN(CC(=O)NC2CCCC2)C(=O)CCC(=O)Nc2cc(C)on2)cc1OC	-21%	-17%
CCOC(=O)C1=C(C)OC(N)=C(C#N)C1c1ccc(C)o1 (configuration not stated)	-4%	-13%
O=C(NCCS(=O)(=O)N1CCN(c2ccccc2)CC1)C1CCCCC1	-20%	-7%
O=C(COC(=O)C1CCN(c2ccc(C(F)(F)F)cn2)CC1)Nc1ncc(Cl)cc1Cl	-9%	i
O=C(CN(C(=O)CNC(=O)c1cccs1)c1cccc(F)c1)NC1CCCCC1	-24%	-19%
Cc1cc2ccccc2n1CCNC(=O)C1CCCC1	-12%	-18%
Cc1c(Cl)cccc1NC(=O)CC1Oc2ccccc2NC1=O (configuration not stated)	-3%&-10%	-4%&-10%
CCCC/C(O)=C1\C(=O)CC(C)(C)CC1=NCCCCCC(=O)O	-7%	8%
CCOc1ccc(CNC(=O)C2CCN(C3=NS(=O)(=O)C(c4ccc(C)cc4)=C3CC)CC2)cc1	-22%	-18%
CCOc1ccccc1N1CN(CC)CNC1=S	-10%	-15%
CCn1cc(S(=O)(=O)c2cc(C)cc(C)c2)c(=O)c2cc(F)c(N3CCCC3)cc21	-22%	-4%
COc1ccc(OCC(=O)Nc2ccc(NC(=O)c3ccco3)cc2)cc1	-8%	.
COc1ccc(-c2cc3ccc(O)c(CN4CCOCC4)c3oc2=O)cc1OC	-8%	-18%
O=C(c1cccc(F)c1)N1CCC(N2CCCCCC2)CC1	-7%	-12%
O=C(c1cccc(C(F)(F)F)c1)N1CCN(c2cc(=O)[nH]nc2-c2ccccc2)CC1	-11%	-9%
O=C(OCC(=O)N1CCCCC1)c1ccc(OC(F)(F)F)cc1	-10%	-20%
COCCN(C(=O)Nc1ccccc1)C(C)c1cccnc1 (configuration not stated)	-1%	-9%
OCC1OC(n2cnc3c(NC4CCCCC4)ncnc32)C(O)C1O (configuration not stated)	-1%	-1%
CCN(C[C@H]1N[C@@](C)(C(=O)OC)[C@H]2C(=O)N(Cc3ccccc3)C(=O)[C@@H]12)C(=O)Nc1ccccc1	-11%	-5%
CN1CCc2c(c3cnc4cc(Cl)ccc4c3n2C)C1	-13%	6%
COc1cccc(N2CCN(CC(=O)NCc3ccccc3)CC2)c1	-6%	-18%
CCC(=O)Nc1ccc(NC(=O)CSc2nc3c(c(=O)n(C)c(=O)n3C)n2CC)cc1	-5%	i
CCOC(=O)COc1nc(C)cc(C(F)(F)F)c1C#N	-4%	-12%
O=C(NCCc1ccc(F)cc1)C(=O)NCC(c1cccs1)S(=O)(=O)c1cccs1 (configuration not stated)	-4%	-9%
COc1ccc(NC(=O)CC2C(=O)OCC3CCCCN32)cc1Cl (configuration not stated)	2%	i
CSc1ncc(Cl)c(C(=O)NCc2ccc(C)cc2)n1	2%	-6%
CCN(C[C@H]1N[C@@](Cc2ccccc2)(C(=O)OC)[C@H]2C(=O)N(Cc3ccccc3)C(=O)[C@@H]12)S(=O)(=O)c1ccc(OC(F)(F)F)cc1	-1%	-23%
Cc1ccc(N2CC(C(=O)OCc3ccccc3)CC2=O)cc1 (configuration not stated)	9%	1%
O=C(CN1CCN(Cc2ccccc2)CC1)Nc1cccc(Cl)c1	-11%	-3%
CCc1nc(C)cn1S(=O)(=O)c1cc(Br)c(C)cc1OC	?	.
Cc1ccc(NC(=O)/C(=C/c2ccncc2)NC(=O)c2ccccc2)cc1	-9%	-10%
O=C1CSC(=S)N1/N=C/c1ccc(O)c([N+](=O)[O-])c1	7%	?
CCCN(CCC)C(=O)Cn1c(=O)n(Cc2ccc(C(=O)NCCc3ccc(Cl)cc3)cc2)c(=O)c2ccccc21	-15%	-7%
CSCCC(NS(=O)(=O)c1ccc2c(c1)oc(=O)n2C)C(=O)N1CCN(c2cc(Cl)ccc2C)CC1 (configuration not stated)	-14%	-21%
CCOC(=O)COc1cccc2c(=O)n(CC(=O)N3CCC(C)CC3)ccc12	-14%	-14%
CC(NC(=O)C1CCCN(S(=O)(=O)c2cccs2)C1)c1ccccc1 (configuration not stated)	-11%	i
CCN(CC)CCN1C(=O)C(=O)/C(=C(/O)c2ccc(F)cc2)C1c1ccncc1 (configuration not stated)	-11%	-13%
O=c1cc(C(F)(F)F)[nH]c2ccc(C(F)(F)F)cc12	?	-28%
Cc1cccc(N2CCN(C(=O)c3cc(S(=O)(=O)N4CCC(C)CC4)cn3C)CC2)c1C	-10%[7.34 µM]	-9%[7.34 µM]
Cc1nn(-c2ccccc2)c(NC(=O)C(C)C)c(-c2ccccc2)c1=O	-5%	-12%
COc1cc(=O)n2c(c1C(=O)NC(C)c1ccco1)CCN(C(=O)c1[nH]c(C)cc1C)CC2 (configuration not stated)	-17%	i
COc1cc(-c2noc(CCCC(=O)Nc3cccnc3)n2)cc(OC)c1OC	-1%	-7%
COc1ccc(-c2cc3c(=O)n(CC(=O)N4CCCCC4)ncn3n2)cc1	-10%	-14%

(next part)
SMILES	VACV Venus inh	Vaccinia mCherry
CC(c1ccccc1)n1c(-c2ccccc2)n[nH]c1=S (configuration not stated)	-12%	24%
CN(C)c1ccc(C(CNS(=O)(=O)c2ccc(F)cc2)N2CCOCC2)cc1 (configuration not stated)	-6%	-5%
COc1ccc(/[N+]([O-])=C/c2ccoc2)cc1	-21%	-19%
CCOC(=O)[C@]12Cc3cc(C)ccc3[C@H]1N(Cc1ccccc1)C(=O)c1ccccc12	-22%&-19%	-22%&-8%
Cc1cc(C=C2C(=O)CCCC2=O)c(C)n1-c1ccccc1	0%	-19%
COc1ccc(Nc2ccc(S(=O)(=O)N3CCCCC3)cc2[N+](=O)[O-])cc1Cl	-25%	?
Cc1ccccc1NC(=O)C1C2C=CC(C3CC23)C1C(=O)O (configuration not stated)	2%	i
Cc1nnc(SCc2ccccc2Cl)c2cc3occc3n12	-9%	-6%
CC(=O)O[C@@]1(C)C[C@@H](O)[C@]2(O)C=CO[C@@H](O[C@@H]3O[C@H](CO)[C@@H](O)[C@H](O)[C@H]3O)[C@@H]21	1%	-13%
O=C(Nc1ccc(S(=O)(=O)Nc2ncccn2)cc1)c1ccc(Br)s1	-8%	i

Laid out differently: entries from further up.
Sequence of screens: VACV Venus inh	Vaccinia mCherry
Cc1ccccc1NC(=O)C1C2C=CC(C3CC23)C1C(=O)O (configuration not stated)
→ 2%	i
Cc1nnc(SCc2ccccc2Cl)c2cc3occc3n12
→ -9%	-6%

Going on with the list.
SMILES	VACV Venus inh	Vaccinia mCherry
Cc1ccc(OCC(=O)NCC(c2ccc(Cl)cc2)N2CCCCC2)cc1 (configuration not stated)	-7%	-9%
COc1ccc(CN2CCN(CCCc3ccccc3)C(CCO)C2)cc1OC (configuration not stated)	-5%	-14%
O=C(NCc1cccs1)c1ccc2c(=O)n3nc(Nc4ccccc4)sc3nc2c1	?	?
CCCCNC(=O)CSc1nc2ccsc2c(=O)n1CCCC(=O)NCCc1ccc(S(N)(=O)=O)cc1	-18%	-4%
CC1Nc2ncnc(N3CCN(c4ccccc4)CC3)c2N(Cc2ccc(Cl)cc2)C1=O (configuration not stated)	?	?
COC(=O)c1ccc(Oc2nc(SC)nc(N(C)C)n2)cc1	-21%	-21%
N#CCCN1CCN(S(=O)(=O)c2ccc(S(=O)(=O)N3CCCCCC3)cc2)CC1	1%	-5%
CCN(CC)c1ncnc2c1ncn2[C@H]1CN(Cc2cccs2)C[C@@H](CO)O1	-4%	11%
COc1ccc(N2CC(C(=O)N[C@@H](C)C(=O)N3CCCCC3)CC2=O)cc1 (some centres not stated)	-4%	i
COc1cccc(CC2(CO)CCN(Cc3ccc4cccc(F)c4n3)CC2)c1	-8%	-22%
COc1ccccc1Nc1nn2c(=O)c3ccc(C(=O)NC4CCCCC4)cc3nc2s1	-17%	-13%
Cc1ccc(N(C(=O)C(F)(F)F)C(C(=O)NC2CCCCC2)c2cccs2)cc1C (configuration not stated)	-9%	-5%
COc1ccc(OCc2nc3c4c(-c5ccc(OC)cc5)c(-c5ccc(OC)cc5)oc4ncn3n2)cc1	-3%	-10%
Cc1cc(NC(=O)CSc2ccc3nnc(CCNS(=O)(=O)c4ccccc4)n3n2)no1	-12%	-1%
COc1ccc(S(=O)(=O)N2CCN(CCO)CC2)cc1-c1nnc2c3ccccc3c(C)nn12	-12%	i
COc1ccc(CCNC(=O)c2ccc(Cl)c(S(=O)(=O)N(C)c3ccccc3)c2)cc1	?	-22%
CCOc1ccc(S(=O)(=O)Nc2cc3c(C(=O)OC)c(COC)oc3c3ccccc23)cc1	-9%	-8%
O=C(C1CCCN1S(=O)(=O)c1ccc(Br)cc1)N1CCOCC1 (configuration not stated)	-15%	i
COC(=O)c1cc(CSc2nnc(-c3ccccc3)c(-c3ccccc3)n2)oc1C	-6%	.
COc1ccccc1-c1nc2c3c(-c4ccccc4)c(-c4ccccc4)oc3ncn2n1	11%	-4%
Cc1ccc(C2C(C#N)=C(N)OC3=C2C(=O)CCC3)s1 (configuration not stated)	-8%	-1%
NS(=O)(=O)c1ccc(CCNC(=O)COC(=O)/C=C/c2ccc(Cl)cc2)cc1	-6%	i
O=[N+]([O-])c1ccc2[nH]c(=S)[nH]c2c1	-15%	i
COc1ccc(/C=N/N2CCOCC2)cc1OCc1ccccc1	-6%	5%
C=Cc1ccc(C(=O)N2CCc3c(cnc(C)c3CNC(=O)c3ccc4c(c3)OCO4)C2)cc1	-6%	-9%
O=C(c1ccc(CNS(=O)(=O)c2cccc(Cl)c2)cc1)N1CCCCC1	-13%	-2%
CCOC(=O)N1CCC(N2Cc3cccc(C(=O)Nc4ccc(OCC)cc4)c3C2=O)CC1	0%	-12%
COc1ccc(CCn2c3c(c(=O)[nH]c2=O)C(NC(=O)c2ccccc2OC)(C(F)(F)F)C(=O)N3)cc1OC (configuration not stated)	-1%	-15%
COc1cc(OC)c(NC(C)C(=O)NCc2ccccc2)cc1Cl (configuration not stated)	-9%	-20%
S=c1[nH]nc(-c2cccnc2)n1/N=C/C(Cl)=C\c1ccccc1	-2%	-11%
CCCCCCCCCCCCOC1OC(CO)C(O)C(O)C1NC(C)=O (configuration not stated)	?	i
CCOC(=O)c1sc(N)c(C#N)c1COC(=O)C1=COCCO1	-6%	i
CC(C)(C)c1nc2ccccc2[nH]1	-2%	i
CC[C@]12c3[nH]c4ccccc4c3CCN1C(=O)C(CC(=O)NCCCn1ccnc1)C[C@@H]2C(=O)N1CCN(C(=O)C2CC2)CC1 (some centres not stated)	-13%	i
COc1ccccc1NC(=O)CN1C(=O)COc2ccc(S(=O)(=O)N3CCCCCC3)cc21	0%	-20%
CCOc1ccc2oc(=O)cc(CN3CCN(c4ccc(Cl)cc4)CC3)c2c1	-9%	-10%
Cc1ccc(CCNC(=O)c2cc3cc4cc(C)ccc4nc3s2)cc1	7%	1%
COC(=O)C[C@H](NC(=O)Cn1cnc2c(SC)nc(N)nc21)C(=O)OC	0%	-11%
COc1ccc(CNC(=O)c2ccccc2SC)cc1	-27%	.
Cc1ccccc1CNc1ccc(C(CC(N)=O)NC(=O)c2ccccc2)cc1[N+](=O)[O-] (configuration not stated)	?	-10%
OC(CN1CCCCC1)CN1CCCCC1	-4%	-8%
COc1ccc(/C=N/NC(=O)c2ccco2)cc1Cn1nc(C)cc1C	-4%	i
Cc1cccc(C)c1NC(=O)CNC(=O)C(C)N1CCCCC1 (configuration not stated)	-16%	-21%
O=C(c1ccc(Cl)c(S(=O)(=O)N2CCCCC2)c1)N1CCCCCC1	-14%	-8%
COc1ccccc1N(C)c1cc2c(c3c1ccn3C)C1CCC2C1 (configuration not stated)	6%	64%[activator]

In the list so far, eleven contain a thiophene ring, fused or not:
SMILES	VACV Venus inh	Vaccinia mCherry
O=C(CN(C(=O)CNC(=O)c1cccs1)c1cccc(F)c1)NC1CCCCC1	-24%	-19%
O=C(NCCc1ccc(F)cc1)C(=O)NCC(c1cccs1)S(=O)(=O)c1cccs1 (configuration not stated)	-4%	-9%
CC(NC(=O)C1CCCN(S(=O)(=O)c2cccs2)C1)c1ccccc1 (configuration not stated)	-11%	i
O=C(Nc1ccc(S(=O)(=O)Nc2ncccn2)cc1)c1ccc(Br)s1	-8%	i
O=C(NCc1cccs1)c1ccc2c(=O)n3nc(Nc4ccccc4)sc3nc2c1	?	?
CCCCNC(=O)CSc1nc2ccsc2c(=O)n1CCCC(=O)NCCc1ccc(S(N)(=O)=O)cc1	-18%	-4%
CCN(CC)c1ncnc2c1ncn2[C@H]1CN(Cc2cccs2)C[C@@H](CO)O1	-4%	11%
Cc1ccc(N(C(=O)C(F)(F)F)C(C(=O)NC2CCCCC2)c2cccs2)cc1C (configuration not stated)	-9%	-5%
Cc1ccc(C2C(C#N)=C(N)OC3=C2C(=O)CCC3)s1 (configuration not stated)	-8%	-1%
CCOC(=O)c1sc(N)c(C#N)c1COC(=O)C1=COCCO1	-6%	i
Cc1ccc(CCNC(=O)c2cc3cc4cc(C)ccc4nc3s2)cc1	7%	1%

From PubChem
